EPAC1 ag val: human EPAC1 agonism, validation; O95398; EPAC1 Rap1b BODIPY-GDP exchange, fluorescence; Potency, µM, inactives show max response, positive = active, most hits filed as activators; hit rate 1% among 16,000; AID 1645883; active = well fitted activation curve with a large enough effect; inconclusive = small, poorly fitted or top-dose-only effect; inactive = no such curve, though single readings can be large or run the other way;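 also: nearly all actives have a fitted effect of over 70% in size; series mostly up to about 76 or 150 µM; scaled to a cAMP control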
Target sequence (O95398 whole entry, looked up): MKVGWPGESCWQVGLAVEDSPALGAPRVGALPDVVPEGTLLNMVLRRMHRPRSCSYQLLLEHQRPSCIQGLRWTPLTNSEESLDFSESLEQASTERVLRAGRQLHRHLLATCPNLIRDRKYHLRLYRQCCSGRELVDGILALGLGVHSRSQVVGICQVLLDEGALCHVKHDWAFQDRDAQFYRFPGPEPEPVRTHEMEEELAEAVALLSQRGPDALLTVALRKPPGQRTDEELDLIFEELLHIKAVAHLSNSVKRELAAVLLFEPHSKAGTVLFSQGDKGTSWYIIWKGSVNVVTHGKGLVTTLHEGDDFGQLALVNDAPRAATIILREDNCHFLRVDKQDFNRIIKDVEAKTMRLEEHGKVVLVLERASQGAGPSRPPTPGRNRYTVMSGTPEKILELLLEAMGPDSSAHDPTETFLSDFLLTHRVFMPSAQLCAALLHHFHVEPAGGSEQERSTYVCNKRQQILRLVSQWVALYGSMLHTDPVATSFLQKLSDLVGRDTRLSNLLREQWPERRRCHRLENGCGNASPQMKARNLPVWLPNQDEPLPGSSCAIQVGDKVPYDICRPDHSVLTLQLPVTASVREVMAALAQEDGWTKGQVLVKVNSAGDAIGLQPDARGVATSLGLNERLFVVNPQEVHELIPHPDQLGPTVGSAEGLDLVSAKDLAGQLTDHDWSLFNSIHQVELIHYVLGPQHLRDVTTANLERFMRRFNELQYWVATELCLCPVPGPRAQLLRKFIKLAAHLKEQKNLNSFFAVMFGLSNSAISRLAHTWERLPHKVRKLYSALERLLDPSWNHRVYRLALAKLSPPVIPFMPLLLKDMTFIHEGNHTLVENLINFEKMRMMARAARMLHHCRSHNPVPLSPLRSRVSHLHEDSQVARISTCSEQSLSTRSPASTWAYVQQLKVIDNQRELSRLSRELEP
* marks the source's active call; other numbers are inactive results; u = inconclusive; & = joins results of further samples; [ ] = remark or other dose. % is scaled to controls: 0 for no effect and ±100 for the full control effect; potency is read from the fitted curve at half-maximal effect.

SMILES,EPAC1 ag val
CS(=O)(=O)OCC(O)C(O)COS(C)(=O)=O (stereo not drawn),-4.4%
CCNc1ncc2nc(CCc3ccccc3)c(=O)n(C[C@H]3CCCO3)c2n1,-31.7%[inhibitor]
c1cc2c(cc1C1CCCCC1)c1c3n2CCN[C@H]3CCC1,28.0%
O=C(Nc1cccc(F)c1)N1CC2(CCN(C(=O)c3csnn3)CC2)C1,12.8%
Cc1oc(-c2ccccc2NC(=O)C2CCC2)nc1CNC(=O)c1cccc(C(F)(F)F)c1,13.3%
COc1ccc(CN2CCCC(n3cc(C(=O)N4CCCCC4)nn3)C2)c(OC)c1OC (stereo not drawn),-11.2%
CN(C)c1ccc(-c2cc(NCc3ccccc3)ncn2)cc1,-23.4%
COCCn1c(=O)c(CCc2ccccc2)nc2cnc(N3CCNCC3)nc21,-53.2%[inhibitor]
O=S(=O)(c1cccc2cnccc12)N1CCNCC1,3.2%
CC(CCc1ccccc1)NCC(O)c1ccc(O)c(C(N)=O)c1 (stereo not drawn),-0.7%&2.0%&-20.8%
COC(=O)[C@@H]1CCCN1Cc1ccc2c(c1)CN(Cc1ccc3c(c1)CCCN3C)CCO2,16.5%
O=c1[nH]cnc2[nH]ncc12,-0.7%&15.9%&-22.6%
CN1CCC(=O)N([C@H](COc2ccccc2)Cc2ccccc2)CC1,-3.0%
Cc1cc(NC(=O)Nc2ccc(N(C)C)cc2)c2cc(F)cc(F)c2n1,13.5%
CN(C)c1ccc(-c2nc(NCCN3CCOCC3)c3ccccc3n2)cc1,-32.0%[inhibitor]
COc1cc(=O)n2c(c1C(=O)NC(C)c1ccco1)CCN(Cc1cc(C)ccc1C)CC2 (stereo not drawn),-3.1%
N[C@H](Cc1ccc(O)cc1)C(=O)O,-9.9%
CC(/C=C/C=C(\C)C(=O)O[C@@H]1O[C@H](CO[C@@H]2O[C@H](CO)[C@@H](O)[C@H](O)[C@H]2O)[C@@H](O)[C@H](O)[C@H]1O)=C\C=C\C=C(C)\C=C\C=C(/C)C(=O)O[C@@H]1O[C@H](CO[C@@H]2O[C@H](CO)[C@@H](O)[C@H](O)[C@H]2O)[C@@H](O)[C@H](O)[C@H]1O,-15.0%
COCCn1c(=O)c(-c2ccc(F)cc2)nc2cnc(Oc3ccc(OC)cc3)nc21,u
O=C(O)[C@H]1CN(CCCP(=O)(O)O)CCN1,2.3%&-4.9%
CC(C)NC(=O)N1CC2(CCN(C(=O)c3ccncc3)CC2)C1,-45.5%[inhibitor]
COc1ccc(Oc2ncc3nc(-c4cccs4)c(=O)n(C)c3n2)cc1,u
COCCN1CCN(C(=O)c2cnn(-c3nccc(-c4cc5ccccc5o4)n3)c2C2CC2)CC1,11.8%
Cc1cc(C)n(-c2ccc(C(=O)N3CCc4c(cnc(C)c4CNC(=O)c4ccccc4F)C3)cc2)n1,-8.9%
O=C(O)C1CC[C@@](C(=O)O)(c2ccccc2)c2ccccc21 (stereo partly drawn),-13.5%
OCC(O)COc1ccc(Cl)cc1 (stereo not drawn),-4.7%
CC(C)(C)c1ccc(C(=O)CCCN2CCC(OC(c3ccccc3)c3ccccc3)CC2)cc1,1.6%&11.0%
CCOC(=O)C[C@H]1c2ccccc2S(=O)(=O)N1c1cccc(OC)c1,u
CCOC(=O)Nc1ccc2c(c1)N(C(=O)CN(C)C)c1ccccc1CC2,0.4%
CC(C)(C)C(=O)NCCCC(=O)O,-8.2%
CC(=O)OCC(OC(C)=O)C(OC(C)=O)C(OC(C)=O)C(OC(C)=O)C(COC(C)=O)OC(C)=O (stereo not drawn),-27.7%
C#C[C@]1(O)CC[C@@H]2[C@H]3CCC4=CC(=O)CC[C@H]4[C@H]3C(=C)C[C@@]21CC,-25.0%
COC(=O)N1c2ccccc2C23[C@@H]4CN5CCC[C@]6(CCC12C(O)(C6)C4=O)[C@H]53,-16.4%
CC(=O)c1ccc(F)c(-c2cc(C)cc3c2OC(CNC(=O)c2csc(C)n2)C3)c1 (stereo not drawn),8.3%
O=C(O)c1ccc(OCCCOc2ccc(C(=O)O)cc2)cc1,-12.6%
CCOC(=O)c1c(C)cc(OC)cc1O,-27.5%
C[C@H]1CN(C2CCCCC2)C(=O)[C@@H]1CC(=O)NCc1ccccc1,-31.2%[inhibitor]
COc1ccccc1CCc1nc2ccccc2n1C1CCN(C(=O)c2cc(C)nn2C)CC1,6.1%
CCC1CN(CC(=O)NC(C)c2cn(C)nc2C)Cc2cc(OC)ccc2O1 (stereo not drawn),-8.2%
C=C(C)C1(O)OC(=O)C=C1OC (stereo not drawn),-0.7%
O=c1c(CCc2ccccc2)nc2cncnc2n1C1CC1,26.0%
O=C(O)CCCCC1CCSS1 (stereo not drawn),-12.0%&-8.7%&22.7%
CCNc1ncc2nc(-c3cn(C)c4ccccc34)c(=O)n(Cc3cccc(OC)c3)c2n1,-36.4%[inhibitor]
Cc1noc(C)c1-c1cncnc1N(C)Cc1ccco1,u
CC(C)CN1CCCC2(CCN(S(=O)(=O)c3ccccc3)CC2)C1,-47.1%[inhibitor]
CCOC(=O)C(CCc1ccccc1)NC(C)C(=O)N1C(C(=O)O)CC2CCCC21 (stereo not drawn),13.0%
Nc1c[n+](N2CCOCC2)no1,-11.7%
CCCCC[C@H](O)/C=C/[C@@H]1[C@@H](CCCCCCC(=O)O)[C@@H](O)C[C@H]1O,-8.2%
O=P(O)(O)C(O)(Cn1ccnc1)P(=O)(O)O,13.1%
O=C(c1cnccn1)N1CCC2(CCN(Cc3nccs3)CC2)CC1,-51.3%[inhibitor]
O=C1CCC[C@@H]2[C@H](Cc3ccccc3)[C@@H](O)C[C@@H]3CCN1[C@@H]32,u
S=c1ccss1,12.1%
C[C@]12C[C@H](O)[C@H]3[C@@H](CCC4=CC(=O)CC[C@@]43C)[C@@H]1CC[C@@H]2C(=O)CO,-16.2%&24.8%
CCC[N+](C)(C)c1ccc(/C=C/c2ccncc2)cc1,-71.0%[inhibitor]
Cc1cnc(C)c(-c2cc(F)cc3c2OC(CNC(=O)C2CCOC2)C3)n1 (stereo not drawn),1.8%
N#Cc1ccc(CN2CCCC3(CCN(C(=O)c4ccncc4)CC3)C2)cc1,-22.5%
COc1ccc(/C=C/C(=O)NCC2Cc3cc(Cl)cc(-c4ncccn4)c3O2)cc1 (stereo not drawn),u
CC[C@H]1OC(=O)[C@H](C)[C@@H](O[C@H]2C[C@@](C)(OC)[C@@H](O)[C@H](C)O2)[C@H](C)[C@@H](O[C@@H]2O[C@H](C)C[C@H](N(C)C)[C@H]2O)[C@](C)(O)C[C@@H](C)C(=O)[C@H](C)[C@@H](O)[C@]1(C)O,-15.9%&-33.9%
COc1ccc(NC(=O)N2CCC3(CC2)CCN(C(=O)c2ccncc2)CC3)cc1,-61.5%[inhibitor]
c1cncc(-c2cncnc2NC2CCNCC2)c1,-23.9%

New compounds follow
SMILES,EPAC1 ag val
CC(C)c1ccc(C(=O)C[N+]2(C)CCOCC2)cc1,-42.1%[inhibitor]
CC(C)[C@@H](CSc1ccccc1)N1CCN(Cc2ccccc2)CCC1=O,-8.8%
c1ccc(CNc2ncncc2-c2ccoc2)cc1,7.5%
Cc1ccccc1-c1cncnc1NCc1cccs1,-20.8%
O=C(c1cc2ccccc2o1)N1CCN(Cc2ccccc2)CC1,-2.2%
O=C(c1ccco1)N1CCC2(CC1)CN(c1ccccc1)C2,u
CCn1c(-c2ccccc2F)nc2cc(NC(C)=O)cc(C(=O)NCC3CCOCC3)c21,-16.3%
COc1ccc(-c2coc3ccc(OC4OC(COC(C)=O)C(OC(C)=O)C(OC(C)=O)C4OC(C)=O)cc3c2=O)cc1 (stereo not drawn),-7.5%
CC(=O)OCC1OC(n2cnc3c(=O)[nH]cnc32)C(OC(C)=O)C1OC(C)=O (stereo not drawn),-14.7%
O=C(c1csnn1)N1CCC2(CC1)CN(c1ccccc1)C2,-38.1%[inhibitor]
CCC(=O)NCCC1CCc2ccc3c(c21)CCO3 (stereo not drawn),-26.8%
CC(C)CCOC(=O)c1ccc(N(C)C)cc1,-13.4%
COC(=O)c1cc(CNC(=O)c2ccccn2)cc(NC(=O)c2ccccc2OC)c1,8.5%
Nc1ncnc2nc(Cl)[nH]c12,u
Cc1nc2sccn2c1CN1CCOc2ccc(CN3CCN(c4ccc(F)cc4)CC3)cc2C1,-3.4%
COc1ccc(-n2c(=O)c(-c3cn(C)c4ccccc34)nc3cnc(N4CCNCC4)nc32)cc1,-60.5%[inhibitor]
Cc1cn[nH]c1,u
COCCn1c(=O)cnc2cnc(Oc3ccc(OC)cc3)nc21,-22.0%
Cc1nc(N=Nc2ccc(C(=O)O)cc2)c(COP(=O)(O)O)c(C=O)c1O,0.0%
COCCNc1nc(-c2ccccc2C)nc2ccccc12,25.2%
O=c1cc(-c2cc3ccccc3oc2=O)c2ccc(O)cc2o1,-13.8%
O=C(Nc1cccc(F)c1)N1CC[C@@]2(CCCN(S(=O)(=O)c3ccccc3)C2)C1,-52.0%[inhibitor]
COc1cccc2c(=O)c3ccoc3n(C)c12,9.3%
Cc1nc2cnc(OCc3ccccc3)nc2n(CCC#N)c1=O,-79.5%[inhibitor]
CC1CC(OC(=O)c2ccccc2O)CC(C)(C)C1 (stereo not drawn),-12.3%&9.7%
O=[N+]([O-])c1ccc2nc(CO)[nH]c2c1,20.4%
Cc1ccccc1OCC(O)CNCCOc1ccc(C(N)=O)cc1 (stereo not drawn),-17.7%
Cc1nc2cnc(N3CCN(C)CC3)nc2n(C2CC2)c1=O,-30.0%
O=C(c1cnccn1)N1CCC[C@@]2(CCN(Cc3cc(C(F)(F)F)cc(C(F)(F)F)c3)C2)C1,-80.4%[inhibitor]
C=CCn1c(=O)c2c(nc(-c3ccccc3)n2C)n(C)c1=O,-6.5%
O=C(NCc1nnc2n1CCN(Cc1ccnc3ccccc13)CC2)c1cccc(F)c1,-26.7%
NC1(C(=O)O)CCc2cc(P(=O)(O)O)ccc21 (stereo not drawn),-11.4%
CS(=O)(=O)N1CCC2(CC1)CN(C(c1ccccc1)c1ccccc1)C2,-0.2%
CN1CCCC1CCOC(C)(c1ccccc1)c1ccc(Cl)cc1 (stereo not drawn),-2.4%
Cc1cc(CC(=O)O)n(C)c1C(=O)c1ccc(Cl)cc1,u
C=C1C(=CC=C2CCC[C@]3(C)[C@@H]([C@H](C)C=C[C@H](C)C(C)C)CC[C@@H]23)C[C@@H](O)C[C@@H]1O,-167.0%[inhibitor]
COc1ccc2c(c1)c1c3n2CCN(C)C3=NCC1,1.7%
O=C(c1ccccc1F)N(Cc1cc2cc3c(cc2nc1N1CCOCC1)CCC3)CC1CCCO1 (stereo not drawn),-6.0%
CC(C)C(N)C(=O)OCCOCn1cnc2c(=O)[nH]c(N)nc21 (stereo not drawn),-76.2%[inhibitor]
CN(Cc1ccco1)c1ncnc2ccc(-c3ccoc3)cc12,-14.2%

Reformatted with each value named: entries from further up.
Cc1cc(CC(=O)O)n(C)c1C(=O)c1ccc(Cl)cc1
- EPAC1 ag val: u

C=C1C(=CC=C2CCC[C@]3(C)[C@@H]([C@H](C)C=C[C@H](C)C(C)C)CC[C@@H]23)C[C@@H](O)C[C@@H]1O
- EPAC1 ag val: -167.0%[inhibitor]

COc1ccc2c(c1)c1c3n2CCN(C)C3=NCC1
- EPAC1 ag val: 1.7%

Other records.
SMILES,EPAC1 ag val
C[C@H]1CC2C3CCC4=CC(=O)C=C[C@]4(C)[C@@]3(Cl)[C@@H](O)C[C@]2(C)[C@@]1(O)C(=O)CO (stereo partly drawn),-2.2%
CN(C)c1ccc(/C=C/c2cc3ccccc3c[n+]2C)cc1,6.3%
Nc1nc2[nH]cc(CCc3ccc(C(=O)N[C@@H](CCC(=O)O)C(=O)O)cc3)c2c(=O)[nH]1,-5.5%
CSCC[C@H](NC(=O)[C@H](Cc1ccc(OS(=O)(=O)O)cc1)NC(=O)[C@@H](N)CC(=O)O)C(=O)NCC(=O)N[C@@H](Cc1c[nH]c2ccccc12)C(=O)N[C@@H](CCSC)C(=O)N[C@@H](CC(=O)O)C(=O)N[C@@H](Cc1ccccc1)C(N)=O,-2.8%&-7.9%
COc1ccc(-c2ccc(C(=O)N3CCc4c(cnc(C)c4CNS(=O)(=O)N(C)C)C3)o2)cc1,9.4%
CCC(CN)CC(C)CCNCC(O)CNCC(C)CC(CC)CN (stereo not drawn),0.2%
CCCCC[C@H]1CN(CCc2ccccc2)C(=O)[C@@H]1CC(=O)NCc1ccc(OC)cc1,-84.7%[inhibitor]
COCCn1c(=O)c(-c2ccc(OC)cc2)nc2cnc(OCc3ccccc3)nc21,-38.6%[inhibitor]
NC1(C(=O)O)CCC1,-17.1%
O=C(Nc1cccc(F)c1)N1CC2(CCN(C(=O)c3cccc(F)c3)CC2)C1,17.4%
O=c1ccc2ccccc2o1,16.1%&-2.0%
COc1ccc2[nH]c(S(=O)Cc3ncc(C)c(OC)c3C)nc2n1 (stereo not drawn),-11.8%
COc1ccccc1C(=O)N[C@@H]1c2ccccc2C2(CCN(C(=O)c3csnn3)CC2)[C@H]1OC,-3.6%

Among those listed so far, these contain a cyano group.
SMILES,EPAC1 ag val
N#Cc1ccc(CN2CCCC3(CCN(C(=O)c4ccncc4)CC3)C2)cc1,-22.5%
Cc1nc2cnc(OCc3ccccc3)nc2n(CCC#N)c1=O,-79.5%[inhibitor]

Screening results as filed in PubChem BioAssay.

This is a subset; rates above refer to the full screens.
